VDR inh: vitamin D3 receptor (human) inhibition; Potency, µM, without a hit: max response, negative = inhibition, usual class: inhibitors; VDR-SRC2-3 peptide fluorescence polarization, 2 h; P11473; 400,000 compounds, 0.93% hits; active means well fitted inhibition curve with a large enough effect; inconclusive means small, poorly fitted or top-dose-only effect, or another doubt; inactive means no such curve, though single readings can be large or run the other way; further: series mostly up to about 120 µM
Target sequence (P11473 whole entry, looked up): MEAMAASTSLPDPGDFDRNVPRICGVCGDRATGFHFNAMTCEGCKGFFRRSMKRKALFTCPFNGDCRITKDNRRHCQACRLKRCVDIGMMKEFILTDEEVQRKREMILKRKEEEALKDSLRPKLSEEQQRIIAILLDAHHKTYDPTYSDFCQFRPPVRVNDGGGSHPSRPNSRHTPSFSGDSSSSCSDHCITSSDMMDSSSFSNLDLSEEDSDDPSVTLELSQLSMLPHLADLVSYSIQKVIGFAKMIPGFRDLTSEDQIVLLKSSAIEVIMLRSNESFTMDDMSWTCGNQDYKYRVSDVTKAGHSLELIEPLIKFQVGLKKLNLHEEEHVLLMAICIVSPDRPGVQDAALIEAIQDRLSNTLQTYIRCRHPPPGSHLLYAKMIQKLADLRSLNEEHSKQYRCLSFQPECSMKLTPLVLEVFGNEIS
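VDR–SRC2-3 interaction, FP format. Cmpds 23 nl via pintool, brief spin, 2 h ambient incubation.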
An asterisk follows results filed as active; ? = inconclusive; & = joins results of further samples; [ ] = dose if it differs, or a comment. On the % scale 0 is the no-effect control and ±100 the full control effect; potency means the concentration at half of the fitted maximal effect.

SMILES	VDR inh
O=C(CCCOc1ccc(Cl)cc1Cl)N1CCC2(CC1)OCCO2	-9.4%
CSc1nnc([C@@H](N)Cc2ccccc2)o1	-21.8%
c1cncc(C2CCCCN2)c1 (configuration not stated)	6.8%&-3.1%
Cc1nc2ccccc2c(=O)n1-c1cccc([N+](=O)[O-])c1	-16.4%
CCc1ccc(/C=C(/C#N)C(N)=S)cc1	?
CCOC(=O)CC(SP(=S)(OC)OC)C(=O)OCC (configuration not stated)	28.2µM*
O=Cc1cn(Cc2ccccc2F)c2ccccc12	-10.1%
CCOP(=O)(OCC)C1(O)C(=O)Nc2ccccc21 (configuration not stated)	-3.8%
CCCNC(=O)N1[C@H]2CC[C@@H]1C(C(=O)OC)=C(c1cc3ccccc3s1)C2	0.7%
Cc1nn(Cc2ccccc2Cl)c(C)c1C(=O)NC1CCCc2ccccc21 (configuration not stated)	-6.1%
CCOP(=S)(OCC)SCn1c(=O)oc2cc(Cl)ccc21	35.5µM*
COc1ccc(-c2cc(-c3ccccc3)[n+](C)c(-c3ccccc3)c2)cc1	-0.1%
CCCCC[C@@H](/C=C/C=C\CCCCCCCC(=O)O)OO	-8.2%&17.3%
COc1cc(C=C2C(=O)NC(=O)NC2=O)ccc1OCc1ccc([N+](=O)[O-])cc1	?
CCOc1ccc(Br)c(C2(O)CC(C)N(C)CC2C)c1 (configuration not stated)	1.7%
COc1cc2[nH]c(=O)n(-c3ccc(C)cc3)c(=O)c2cc1OC	-6.2%&-22.1%
Cc1cc(C)c(C(=O)CN2CCOCC2)c(C)c1	28.2µM*
CC(=O)N1CC(=O)Nc2ccc(C)cc2C1c1ccccc1 (configuration not stated)	4.9%
NCCc1cc(O)c(O)cc1O	89.1µM*
O=C1NC(=O)C(=Cc2ccc(-c3ccc(S(=O)(=O)N4CCOCC4)cc3)o2)C(=O)N1	22.4µM*
CCOC(=O)C1(CCOc2ccccc2)CCN(C(C)CSC)CC1 (configuration not stated)	-16.9%
O=C(NC1CCCCC1)N1Cc2ccccc2-n2nncc2C1	6.2%
O=C(CN1CC(c2ccccc2)CC1=O)Nc1ccc(F)cc1 (configuration not stated)	6.5%
O=c1c2ccccc2nc(-c2ccco2)n1-c1ccc(Br)cc1	-6.2%
CCn1c(=O)cc(OCC(=O)N2CCN(Cc3ccc4c(c3)OCO4)CC2)c2ccccc21	2.6%
O=C1/C(=C/c2ccc3c(c2)OCO3)N2CCC1CC2	-13.1%
CCC(C)n1c(C)cc(C(N)=O)c1C (configuration not stated)	-11.4%
COc1ccccc1N(CC(=O)NC1CCCC1)C(=O)c1cnn(C(C)C)c1	-1.2%
Cc1nn(Cc2ccccc2)c(Cl)c1C(=O)NC1CCCc2ccccc21 (configuration not stated)	-10.6%
CC1=C2C(=CO[C@H](C)[C@H]2C)C(=O)C(C(=O)O)=C1O	?
Clc1ccc2c(c1)CCc1cccnc1C2=C1CCNCC1	?
O=c1[nH]c(=O)n(Cc2ccco2)c(O)c1C=NC1CC1	21.8%
CC(C)CN1CCN(Cc2c(F)cccc2Cl)CC1CCO (configuration not stated)	-3.2%
c1ccc(N2CCCC3(CCNCC3)C2)nc1	50.1µM*
Cc1ccsc1/C=C1\C(=O)NC(=S)N(C)C1=O	?
N#Cc1ccc(N2CCNCC2)c(F)c1	23.7%
CCN(CC)CCCN=C(C)c1c(O)n(-c2ccccc2)c(=O)[nH]c1=O	13.0%
CC(=O)Nc1ccc(C(=O)C(Cc2ccccc2)N(C)C)cc1 (configuration not stated)	19.2%
O=c1cccc2n1CC1CC2CN(C(c2cccc(F)c2)c2sc3ncnn3c2O)C1 (configuration not stated)	-14.4%
Clc1ccc([C@@H]2C[C@H]3CC[C@@H]2N3)cn1	3.4%
CCC(=O)c1ccc(OCC(=O)N2CCN(CC(=O)Nc3ccccc3C(F)(F)F)CC2)cc1	20.2%
CC(C)c1c(CN(C)[C@@H](C)Cc2ccccc2)n(C)n(-c2ccccc2)c1=O	-1.6%
Cc1ccc(S(=O)(=O)N(c2cc(Cl)c(O)c(Cl)c2)P(=O)(OC(C)C)OC(C)C)cc1	-6.9%
CCC(=NC(C)c1ccccc1)c1c(O)[nH]c(=O)[nH]c1=O (configuration not stated)	-12.6%
COc1cc(C(=O)Nc2ccc(Br)cc2C(=O)c2ccccc2)cc(OC)c1OC	-2.6%
CCC(=Nc1ccc(OC)cc1OC)c1c(O)n(C2CCCCC2)c(=O)[nH]c1=O	1.6%
Cn1cnc(CCN)c1	-2.9%&7.8%
COc1cc2c(cc1OC)C13CCN4CC5CCOC6CC(=O)N2C1C6C5CC43 (configuration not stated)	19.7%
CCOC(=O)C1CCN(/C=C2\C(=O)NC(=S)N(CC)C2=O)CC1	0.2%
COc1ccccc1Oc1c(C)oc2cc(OC(=O)N(C)C)ccc2c1=O	-5.8%
COc1ccc(CN2C(=O)CC(=O)NC2=S)cc1	14.4%
CCCCNCC(O)c1ccc(O)cc1 (configuration not stated)	-3.3%
Cc1cc(OCC(=O)N2C[C@H]3C[C@@H](C2)c2cccc(=O)n2C3)c2c(C)c(C)c(=O)oc2c1	-9.9%
c1cncc(C2CCCCN2Cc2ccc3c(c2)OCO3)c1 (configuration not stated)	-1.9%
COc1ccc(-n2c(O)c(C(C)=NCCc3c[nH]c4ccccc34)c(=O)[nH]c2=O)cc1	3.7%
Fc1ccc(Cn2nnnc2CN2CCC(n3nnc4cc(C(F)(F)F)ccc43)CC2)cc1	4.7%
O=C(Cc1ccccc1)NC(Cc1ccc(Cl)cc1)C(=O)O (configuration not stated)	8.2%
CN(C)/C=C1/C(=O)NC(=O)N(CCNc2ncc(C(F)(F)F)cc2Cl)C1=O	-3.9%
CCN1C(=O)C(=C2C=C(C)N(Cc3ccco3)C(C)=C2)C(=O)N(CC)C1=S	2.4%
CCC12CN3CC(CC)(CN(C1)C3c1c(C)[nH]c(=O)[nH]c1=O)C2=O (configuration not stated)	14.3%

Next part:
SMILES	VDR inh
CC(=O)O[C@H]1C(=O)[C@@]2(C)C([C@H](OC(=O)c3ccccc3)[C@]3(O)C[C@H](O)C(C)=C1C3(C)C)[C@]1(OC(C)=O)CO[C@@H]1C[C@H]2O (some centres not stated)	-12.1%
Cc1cc(N2C(=O)C3CCCN3C2c2sccc2C)no1 (configuration not stated)	15.7%
COC(=O)C1=C(c2ccc(OC)c(OC)c2)C[C@@H]2CC[C@H]1N2C(=O)NCc1cc(C)oc1C(F)(F)F	8.2%
CN(C)C=C1C(=O)N(C2CCCCC2)C(=O)N(C2CCCCC2)C1=O	?
O=C(Nc1ccc2c(c1)OCCO2)c1cccn(Cc2cccc(F)c2)c1=O	0.7%
C1CCC2S[C@H]3CCCCC3NC2C1 (some centres not stated)	5.6%
Oc1c(Br)cc(-c2ccccc2)cc1Br	-5.0%
CC(C(=O)N1CCC2(CC1)OCCO2)C1Sc2ccccc2NC1=O (configuration not stated)	7.4%
Cc1cccc(NC(=O)N2CC3CC(C2)c2cccc(=O)n2C3)c1 (configuration not stated)	11.1%
O=S(=O)(O)c1cc(O)ccc1O	-5.1%&-4.4%
OCCCCO	-0.9%
Cc1cccc(CN2CCCN(Cc3ccc(Cl)cc3)S2(=O)=O)c1	-21.3%
O=C1NC(=O)C(=Cc2cc(Cl)ccc2OCc2ccc(C(=O)O)cc2)C(=O)N1	50.1µM*
O=c1c2cc(Br)ccc2[nH]c(=S)n1-c1ccccc1	-8.9%
CN1c2ccc([N+](=O)[O-])cc2CC2(C(=O)NC(=O)N(c3ccccc3)C2=O)C1c1ccccc1 (configuration not stated)	-16.7%
Cc1cc(=O)oc2cc(OCC(=O)N3CCC(C(=O)O)(c4ccccc4)CC3)ccc12	-18.5%
CCOc1cc2c(cc1OCC)-n1cccc1C(c1ccc(C)cc1C)NC2 (configuration not stated)	-12.9%
CC(C)C12CN3CCN(CC(C3)C1O)C2 (configuration not stated)	-9.3%
Cc1cc(-n2c(/C=C/c3cccs3)nc3ccccc3c2=O)ccc1Br	6.1%
CN1C(=O)NC(=O)[C@]2(Cc3ccccc3N3CCN(c4ccccc4)CC32)C1=O (some centres not stated)	?
COc1ccc(N2C(=O)CC(N3CC=C(c4ccccc4)CC3)C2=O)cc1 (configuration not stated)	4.2%
CC1CN=C(Nc2ccc(N(C)C)cc2)S1 (configuration not stated)	-22.6%
COc1ccc(-n2c(O)c(C=NCc3ccc4c(c3)OCO4)c(=O)[nH]c2=O)cc1	-5.0%
O=c1[nH]c(=O)n(-c2cccc(Cl)c2)c(O)c1C=NCCN1CCCCC1	7.6%
Cc1ccc(NC(=O)Cn2cc(C(=O)c3ccccc3)c3ccccc32)c(C)c1	0.6%
COCCCn1c(-c2ccc(OC)cc2)cc(C(=O)NC2CCCCCCC2)c1C	-19.8%
O=P(O)(O)CCCl	0.7%
COCC(C)OC(=O)c1c(N)n(Cc2ccco2)c2nc3ccccc3nc12 (configuration not stated)	-4.0%
O=C(Cc1ccccc1)N1CCN(C/C=C/c2ccccc2)CC1	10.3%
C=C(C)[C@H]1C2C(=O)O[C@H]1[C@H]1OC(=O)[C@@]34O[C@@H]3C[C@]2(O)[C@@]14C	0.8%&-8.1%
C[C@]12C=CC(=O)C=C1CC[C@@H]1C2=CC[C@]2(C)[C@@H](C(=O)CN3CCN(c4cc(N5CCCC5)nc(N5CCCC5)n4)CC3)CC[C@@H]12	2.82µM*
Nc1cc(Cl)cc(C(=O)O)c1Cl	-24.1%
C=CCN1CCC2(C)c3cc(O)ccc3CC1[C@@H]2C (some centres not stated)	1.6%
CC(=O)c1cn(Cc2ccccc2F)c2ccccc12	-1.5%
Cc1ccc(N(C)C(=O)Oc2cccc3cccnc23)cc1	-15.8%
CCOC(=O)C1C2NC(=O)N(Cc3ccccc3)C1(C)Oc1c(OC)cccc12 (configuration not stated)	10.6%
Cc1ccc(NC(=O)N(Cc2ccc3c(c2)OCO3)C2CCN(Cc3ccccc3)CC2)cc1Cl	9.6%
N#CCCn1cc(C(=O)NCc2ccccc2)c(-c2ccccc2)n1	9.9%
N[C@@H](CCl)C(=O)O	13.1%&-3.8%
CCC(=O)O[C@@H]1[C@@H](OC(C)=O)[C@@]2(O)C(C[C@H](O)C2(C)C)[C@](C)(O)[C@H]2CC[C@@H]3[C@@H](O)[C@]12C[C@@]3(C)O (some centres not stated)	8.2%
C[C@@H]1C[C@@H]2O[C@H]2/C=C\C=C\C(=O)Cc2c(Cl)c(O)cc(O)c2C(=O)O1	-4.3%
c1ccc2[nH]c(CCNC3CCCCC3)nc2c1	14.9%
CCOC(=O)c1c(C=O)c2ccccc2n1Cc1ccccc1F	-5.6%
CCc1cc2c(s1)NC(=O)CN=C2c1cccs1	-14.2%
CCN(CC)c1ccc(N=Cc2c(O)n(-c3ccc(Cl)cc3)c(=O)[nH]c2=O)cc1	4.3%
CCCCn1c(=O)c(C(=O)Nc2ncccc2C)c(O)c2ccccc21	-1.0%
Fc1ccc(CCNCc2ccc(Cl)c(Cl)c2)cc1	54.1%[activator]
Cc1ccc(-n2c(O)c(/C=N/N3CCCCCC3)c(=O)[nH]c2=O)cc1C	11.1%

By substructure, those above containing an NH in an aromatic ring
SMILES	VDR inh
COc1cc2[nH]c(=O)n(-c3ccc(C)cc3)c(=O)c2cc1OC	-6.2%&-22.1%
O=c1[nH]c(=O)n(Cc2ccco2)c(O)c1C=NC1CC1	21.8%
CCN(CC)CCCN=C(C)c1c(O)n(-c2ccccc2)c(=O)[nH]c1=O	13.0%
CCC(=NC(C)c1ccccc1)c1c(O)[nH]c(=O)[nH]c1=O (configuration not stated)	-12.6%
CCC(=Nc1ccc(OC)cc1OC)c1c(O)n(C2CCCCC2)c(=O)[nH]c1=O	1.6%
COc1ccc(-n2c(O)c(C(C)=NCCc3c[nH]c4ccccc34)c(=O)[nH]c2=O)cc1	3.7%
CCC12CN3CC(CC)(CN(C1)C3c1c(C)[nH]c(=O)[nH]c1=O)C2=O (configuration not stated)	14.3%
O=c1c2cc(Br)ccc2[nH]c(=S)n1-c1ccccc1	-8.9%
COc1ccc(-n2c(O)c(C=NCc3ccc4c(c3)OCO4)c(=O)[nH]c2=O)cc1	-5.0%
O=c1[nH]c(=O)n(-c2cccc(Cl)c2)c(O)c1C=NCCN1CCCCC1	7.6%
c1ccc2[nH]c(CCNC3CCCCC3)nc2c1	14.9%
CCN(CC)c1ccc(N=Cc2c(O)n(-c3ccc(Cl)cc3)c(=O)[nH]c2=O)cc1	4.3%
Cc1ccc(-n2c(O)c(/C=N/N3CCCCCC3)c(=O)[nH]c2=O)cc1C	11.1%

(continued)
SMILES	VDR inh
c1ccc2sc(C3CCCNC3)nc2c1 (configuration not stated)	4.7%
Cc1cccc(CN2CCN(c3ccc(Cl)cc3)CC2)c1	-9.2%
Cc1ccc(CN(Cc2ccccc2)C(=S)NCC(=O)N2CCC3(CC2)OCCO3)o1	-2.7%
COC(=O)/C(C)=C\CC12OC(C)(C)C3CC(C=C4C(=O)c5c(OC)c6c(c(CC=C(C)C)c5OC431)OC(C)(CCC=C(C)C)C=C6)C2=O (configuration not stated)	2µM*
COc1cccc(C(=O)N2C[C@H]3C[C@@H](C2)c2cccc(=O)n2C3)c1	-2.8%
COc1ccc(OC)c(-n2c(O)c(C=NCCN3CCNCC3)c(=O)[nH]c2=S)c1	2.7%
CC(C)=CCCC1(C)C=Cc2c(O)c3c(c(CC=C(C)C)c2O1)OC12C(=CC4CC1C(C)(C)OC2(C/C=C(/C)C(=O)O)C4=O)C3=O (configuration not stated)	2.24µM*
Cc1cc(OCC(=O)NC(Cc2ccc(Cl)cc2)C(=O)O)c2c3c(c(=O)oc2c1)CCCC3 (configuration not stated)	?
C[C@@H](COc1ccccc1)N(CCCl)Cc1ccccc1	25.1µM*
NC(=O)CC[C@@H]1NC(=O)[C@H](Cc2ccccc2)NC(=O)[C@H](Cc2ccc(O)cc2)NC(=O)[C@@H](N)CSSC[C@@H](C(=O)N2CCC[C@H]2C(=O)N[C@@H](CCCN=C(N)N)C(=O)NCC(N)=O)NC(=O)[C@H](CC(N)=O)NC1=O	?
CCCC/C(=N/O)c1c(C)[nH]c2ccccc12	-5.7%

This is a subset; the hit share may differ from the screen's.
